Screening data as filed in PubChem.
ClpP mod = qHTS Assay for Activators of ClpP; purified B. subtilis ClpP, FRET peptide cleavage, 20 min; hit rate 1.9% among 340,000; ATP-dependent Clp protease proteolytic subunit (Bacillus subtilis (strain 168)), P80244; Potency, µM (series often up to 57.5 µM), without a hit: top-dose activity change, negative = active; AID 651965, 2013; active = well fitted falling curve with a large enough effect; inconclusive = small, poorly fitted or top-dose-only effect; inactive = no such curve, though single readings can be large or run the other way; further: potency means the concentration at half of the fitted maximal effect; the source files actives as falling curves though it sought activators and does not explain the sign; nearly all actives have a fitted effect of over 65% in size; many hits overshoot -100%
Target sequence (P80244 whole entry, looked up): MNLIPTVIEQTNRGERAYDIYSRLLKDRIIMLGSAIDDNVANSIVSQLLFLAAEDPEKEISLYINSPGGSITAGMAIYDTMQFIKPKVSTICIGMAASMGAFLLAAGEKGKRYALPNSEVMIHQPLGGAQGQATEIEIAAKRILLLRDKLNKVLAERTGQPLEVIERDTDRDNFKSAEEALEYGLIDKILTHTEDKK
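Purified B. subtilis ClpP, 10 microg/mL final in Tris/HCl pH8 with KCl, BSA, glycerol and Tween-20, cleaved an Abz/nitrotyrosine-quenched decapeptide. Fluorescence (ex 320, em 430) was read at 0 and 20 min at room temperature. Delta was normalized to 5.8 microM ADEP and DMSO/no-enzyme controls.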
gsp antagonist = antagonizes gsp, the McCune-Albright syndrome mutation | gsp-mutant cells, cAMP HTRF, 30 min; control for the full effect not named in the record | hit rate 0.4% among 340,000 | Potency, µM (doses to about 76.9 µM), for inactives: top-dose activity change, negative = inhibition, hits mostly inhibitors; active = falling curve of any shape with a large fitted effect; inconclusive = falling curve, mostly with a smaller effect; inactive = flat or rising curve; cell line not stated here;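 further: intracellular cAMP measured with PDE inhibitor Ro 20-1724 present during compound exposure; potency means the concentration at half of the fitted maximal effect; on the % scale 0 is the no-effect control and ±100 the full control effect; nearly all actives have a fitted effect of over 65% in size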
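G418-selected cells were plated in DMEM/10% FBS for 16-24 h at 37C, then treated with compounds plus the PDE inhibitor […] (300 uM solution added) for 30 min at 37C. Intracellular cAMP was measured by HTRF after 30 min lysis at room temperature.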
gsp ag = gsp mutant agonism; hit rate 0.13% among 340,000; Potency, µM (doses to about 76.9 µM), without a hit: top-dose activation (cAMP increase), usual class: activators; gsp mutant cells, cAMP HTRF, 30 min; control for the full effect not named in the record; active = well fitted activation curve with a large enough effect; inconclusive = small, poorly fitted or top-dose-only effect, or another doubt; inactive = no such curve, though single readings can be large or run the other way; cell line not stated here;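 further: phosphodiesterase inhibitor Ro 20-1724 added with compounds to block cAMP breakdown; potency means the concentration at half of the fitted maximal effect; nearly all actives have a fitted effect of over 60% in size; about a fifth of the inactives were tested at one dose only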
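Cells in DMEM/10% FBS with G418 were pretreated with compounds in DMSO plus […] (300 uM stock) for 30 min at 37C. cAMP was measured by HTRF (cAMP-d2 plus anti-cAMP antibody-K) after 30 min at room temperature.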
Menin MLL FP FL = displaces fluorescein MLL peptide from human menin | AID 1766 | 290,000 tested, under 10 active | FP activity change, % at 61.4 µM | Fluorescence polarization, fluorescein-MLL peptide displacement from menin; inconclusive = falling polarisation curve, or a change in total fluorescence; inactive = total fluorescence flat and polarisation flat or rising; no compound was filed as active; the % refers to the polarisation; negative = inhibition;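 further: % of control where 0% means no effect; inhibitors lower the polarisation; unlabelled MLL peptide was the positive control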
TRPV1 PAM = potentiators of human vanilloid receptor 1 (TRPV1); Q8NER1; TRPV1-expressing cells, Fluo-8 calcium influx, capsaicin EC20 potentiation; host cell line not named in the record; control for the full effect not named in the record; potentiation, % at 8.33 µM; hit rate 0.02% among 320,000; AID 540277; active means potentiation above 80%; inconclusive means 30% to 80%; inactive means below 30%; further: 0% is about no effect
Target sequence (Q8NER1 whole entry, looked up): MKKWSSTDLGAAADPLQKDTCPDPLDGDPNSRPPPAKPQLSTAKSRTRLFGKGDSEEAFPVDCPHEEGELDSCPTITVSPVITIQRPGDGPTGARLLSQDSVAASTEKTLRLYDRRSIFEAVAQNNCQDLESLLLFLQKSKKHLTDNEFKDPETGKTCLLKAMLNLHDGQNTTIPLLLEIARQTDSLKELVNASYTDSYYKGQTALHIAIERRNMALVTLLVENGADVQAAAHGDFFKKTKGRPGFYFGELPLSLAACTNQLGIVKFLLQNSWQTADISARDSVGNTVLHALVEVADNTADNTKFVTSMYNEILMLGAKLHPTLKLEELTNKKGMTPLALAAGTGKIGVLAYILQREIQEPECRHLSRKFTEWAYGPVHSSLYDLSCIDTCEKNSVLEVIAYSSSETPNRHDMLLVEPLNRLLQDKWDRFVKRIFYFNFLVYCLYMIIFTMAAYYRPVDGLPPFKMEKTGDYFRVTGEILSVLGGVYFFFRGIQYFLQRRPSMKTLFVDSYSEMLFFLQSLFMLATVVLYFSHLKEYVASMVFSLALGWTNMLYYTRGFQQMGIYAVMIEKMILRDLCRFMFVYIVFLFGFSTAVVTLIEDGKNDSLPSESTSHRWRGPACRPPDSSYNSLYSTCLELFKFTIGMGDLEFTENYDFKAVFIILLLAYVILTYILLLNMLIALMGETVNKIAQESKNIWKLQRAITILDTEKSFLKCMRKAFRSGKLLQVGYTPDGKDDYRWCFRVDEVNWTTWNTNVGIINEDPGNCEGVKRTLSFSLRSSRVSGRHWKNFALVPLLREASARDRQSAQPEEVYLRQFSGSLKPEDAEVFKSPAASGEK
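TRPV1-expressing cells were cultured overnight at 35.5C and loaded with Fluo-8 calcium dye for 40 to 90 min at room temperature. After a 10 s baseline, compound was added and calcium influx was read kinetically for 3 min (ex 480/em 520 nm).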
Sfp PPTase inh = inhibitors of Bacillus subtilis Sfp phosphopantetheinyl transferase; Q9F4F7; Potency, µM, for the others: max response, negative = inhibition, usual class: inhibitors; AID 1490; hit rate 3.5% among 310,000; Biochemical Sfp PPTase activity, qHTS; active means well fitted inhibition curve with a large enough effect; inconclusive means small, poorly fitted or top-dose-only effect, or another doubt; inactive means no such curve, though single readings can be large or run the other way;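 further: the enzyme is Sfp with the accession as filed and its product quenches rhodamine fluorescence; potency means the concentration at half of the fitted maximal effect; 0% = enzyme reaction without inhibitor and -100% = no enzyme wells; top concentration of the series not given in the record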
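Compounds were incubated with enzyme (final 15 nM) for 15 min at room temperature before substrate addition started the reaction. Fluorescence at 525 nm excitation, 598 nm emission was recorded immediately and after 30 minutes.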
CtBP-E1A inh = CtBP/E1A binding inhibition; hit rate 0.49% among 340,000; AID 651724; AlphaScreen GST-E1A/His-CtBP binding, 1536-well; stronger effect = lower value; control for the full effect not named in the record; activity change, % (test concentration not listed); in the data active means activity change below about -65%; inconclusive means about -30% to -65%; inactive means above about -30%; further: on the % scale 0 is the no-effect control and ±100 the full control effect; compound concentration not given in the record
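GST-E1A and His-tagged CtBP (125 nM each as 5X stock) were preincubated with pin-transferred compound for 2 h at 37 °C in the dark, then glutathione donor and nickel acceptor beads were added for 1 h before AlphaScreen reading.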
* marks the source's active call; other numbers are inactive results; ? = inconclusive; . = not tested or not shown; & = joins results of further samples; [ ] = remark or other dose.

SMILES	ClpP mod	gsp antagonist	gsp ag	Menin MLL FP FL	TRPV1 PAM	Sfp PPTase inh	CtBP-E1A inh
Cc1cccc(C(=O)NC2CCCc3ccccc32)c1 (stereo not given)	.	.	.	1.8	2	1%	.
Cc1cc(S(=O)(=O)N2CCCCC2CCNC(=O)C(=O)NCC2CCCO2)ccc1F (stereo not given)	-1.1%	1%	1%	.	4	.	-2
Cc1ccc(S(=O)(=O)NCC(=O)OCC(=O)Nc2ncc(Cl)cc2Cl)cc1	-3.1%	-13%	8%	0.7	7	-3%	-2
COc1cc(/C=N/N=C/c2cc(OC)c(O)c(OC)c2)cc(OC)c1O	-2.4%	-3%	9%	1.1	-5	4%	-20
CC(C)(CC(=O)O)CC(=O)N1CCCN(c2nc3ccc(Cl)cc3s2)CC1	-0.8%	-17%	-9%[15.4 µM]	3.4	-4	14%	-23
O=C(c1ccco1)N1CCN(c2ccc(S(=O)(=O)N3CCCC3)cc2)CC1	-2.7%	-6%	-82%[inhibitor]	-0.2	9	5%	0
COc1cc(/C=C/C(=O)Nc2cccc(S(=O)(=O)NC3=NCCCCC3)c2)ccc1OCC#N	-1.0%	-10%	13%	.	4	.	11
COC(=O)c1nnn(CC(=O)NC(=O)Nc2cccc(C)c2C)c1C(=O)OC	-0.4%&4.6%	4%	-9%[15.4 µM]	3.3	0	14%	-6
Cc1cc(C)n(CC(O)CN2c3ccccc3Sc3ccccc32)n1 (stereo not given)	-0.9%	-20%	-15%	1.9	-2	2%	-12
c1ccc2c(c1)CC1(CCCC1)n1nnnc1-2	0.7%	-8%	3%	2.0	-9	11%	-4
COc1ccc(/C=C/C(=O)C(C)(C)C)cc1OC	-3.2%	10%	?	-2.1	-3	12%	.
COC(=O)C1=C(C)N(Cc2ccccc2)C(=NCc2ccc3c(c2)OCO3)N[C@H]1c1ccccc1	-0.1%	9%	-27%	0.2	-9	6%	0
C[C@@H]1O[C@@H](O[C@@H]2[C@@H](O)[C@H](OCCc3ccc(O)c(O)c3)O[C@H](CO)[C@H]2OC(=O)/C=C/c2ccc(O)c(O)c2)[C@H](O)[C@H](O)[C@H]1O	-0.4%	4%	.	.	.	.	-5
Cn1cc(/C=C/c2cc[n+](C)cc2)c2cc(F)ccc21	0.9%	?	-9%[15.4 µM]	?	21	-12%	-1
COc1ccc([N+](=O)[O-])cc1COc1ccc2c(-c3ccccc3)cc(=O)oc2c1	?	9%	-3%	2.7	-43	2%	21
COc1ccccc1-c1noc(-c2ccncc2)n1	-0.6%	5%	-33%	2.3	1	8%	-5
CC1Cc2ccccc2N1S(=O)(=O)c1cccc(C(=O)N2Cc3ccccc3CC2C(N)=O)c1 (stereo not given)	-3.5%	-9%	-3%	.	15	.	1
COc1ccc(Cc2nnc(SC)[nH]c2=O)cc1	-1.7%	-6%	-5%	2.5	0	-20%	0
CCN(C(=O)CCCCC(=O)N(CC)c1ccccc1)c1ccccc1	.	-8%	-5%	.	.	.	-2
N#Cc1c(NC(=O)CSc2nnc(-c3ccccc3O)n2-c2ccccc2)sc2c1CCCC2	-2.4%	4%	-36%	6.6	-8	1%	0
C/C(=N\NC(=O)CNC(=O)c1cccnc1)c1cccc(O)c1	0.9%	2%	4%	13	4	18%	.
Cc1ccc(/C(C#N)=C\c2ccc(N3CCOCC3)o2)cc1	0.9%	7%	-8%	?	10	1.4µM*	4
CNC(=O)c1ccc(-c2ccc(F)cc2)s1	?	-3%	10%	2.3	-10	9%	7
O=C(Nc1ccc2c(c1)oc1ccccc12)c1ccc(Br)o1	-8.0%	-5%	?	0.4	-4	-17%	-3
O=C(CN1C(=O)NC(c2ccccc2)(c2ccccc2)C1=O)NC1CCCCC1	1.6%	4%	-37%[inhibitor]	.	-3	.	6
Cc1nn(C(C)C(=O)N/N=C/c2ccc(N(C)C)cc2)c(C)c1[N+](=O)[O-] (stereo not given)	-2.7%	-15%	-25%[15.4 µM]	-3.1	-7	-12%	2
CCOc1ccc(NC(=O)CN(C)CC(=O)NC(C)c2ccccc2)cc1OCC (stereo not given)	.	10%	4%[15.4 µM]	0.5	5	10%	-11
COc1ccc(Cl)cc1N(CC(=O)NCCSCc1ccccc1)S(C)(=O)=O	-1.5%	-8%	2%[15.4 µM]	1.2	20	9%	-5
Cc1ccc(Cn2c(NCCCn3ccnc3)nc3c2c(=O)n(C)c(=O)n3C)cc1	-0.8%	11%	0%	-1.5	-1	12%	5
Cc1ccc(S(=O)(=O)N(C)c2ccc(C(=O)NCc3ccccn3)cc2)cc1	.	-6%	?	-0.8	0	6%	12
COc1ccc(CN2CCNC(=O)C2CC(=O)N(Cc2nccn2C)C(C)C)c(OC)c1 (stereo not given)	.	11%	-4%[15.4 µM]	7.4	-4	-2%	4
NC(=O)CSc1cn(Cc2ccc(F)cc2)c2ccccc12	-5.5%	-5%	-47%[inhibitor]	?	-4	8%	10
CC(=NNS(=O)(=O)c1ccc(C)cc1)c1ccccc1	0.9%	.	-16%	.	.	.	2
O=C(CSc1nc2ccccc2o1)Nc1nc2ccc(Br)cc2s1	-3.3%	-4%	17%	3.4	22	13%	-1
COC(=O)c1sccc1NC(=O)COc1ccc(F)cc1Cl	.	-3%	33%	1.2	4	19%	15
O=C(OCC(=O)N1CCc2ccccc21)c1ccccn1	1.0%	14%	16%	7.6	-18	9%	5
CC(=O)Oc1ccc(-c2nc(-c3cccnc3)no2)cc1	-2.6%	0%	-13%	2.1	-21	9%	13
COc1ccc(OC)c(C2SCCN2S(=O)(=O)c2cccc(C(F)(F)F)c2)c1 (stereo not given)	-3.1%	-4%	-36%[inhibitor]	0.2	-5	0%	1
Cc1nc(N2CCN(c3ccccn3)CC2)c2c(C)c(C(=O)Nc3c(F)cc(F)cc3Br)sc2n1	3.7%	?	?	0.0	10	23%	?
COCCN1C(=O)c2oc3ccccc3c(=O)c2C1c1ccc(C(=O)OC)cc1 (stereo not given)	-1.0%	3%	9%	-0.6	25	-5%	-7
COc1ccc(CNC(=O)CN(Cc2ccco2)C(=O)CNS(=O)(=O)c2ccccc2)cc1	1.4%	-16%	-25%[15.4 µM]	.	6	-8%	-25
Cc1cc(C)cc(N2C(=O)C3CC=CCC3C2=O)c1 (stereo not given)	2.7%	6%	-8%	-2.6	-1	-10%	3
COc1ccccc1CNC(=O)C1CCC(CNS(=O)(=O)c2cccs2)CC1 (stereo not given)	.	-11%	-5%	2.8	19	18%	0
Cc1ccc(-n2nc3c(c2NC(=O)C(C)(C)C)CS(=O)(=O)C3)cc1	-1.0%	3%	2%	-0.1	-5	18%	.
O=S(=O)(O/N=C1\CCCc2ccccc21)c1ccc(Cl)cc1	-1.6%	18%	5%	-4.1	-8	-24%	7

Entries of single compounds as entered above. Screens in order: ClpP mod | gsp antagonist | gsp ag | Menin MLL FP FL | TRPV1 PAM | Sfp PPTase inh | CtBP-E1A inh
Cc1cc(C)cc(N2C(=O)C3CC=CCC3C2=O)c1 (stereo not given) across the screens: 2.7% | 6% | -8% | -2.6 | -1 | -10% | 3
Cc1ccc(-n2nc3c(c2NC(=O)C(C)(C)C)CS(=O)(=O)C3)cc1 across the screens: -1.0% | 3% | 2% | -0.1 | -5 | 18% | .

Next part:
SMILES	ClpP mod	gsp antagonist	gsp ag	Menin MLL FP FL	TRPV1 PAM	Sfp PPTase inh	CtBP-E1A inh
CCOc1ccc2ccccc2c1C1NC(=S)N(C)C(C)=C1C(=O)OC (stereo not given)	8.9µM*	-22%	24%[15.4 µM]	1.5	-7	13%	-1
Cc1[nH]c2ccccc2c1C(=O)CSC(=S)N1CCN(C)CC1	-0.1%	3%	10%	-0.2	-11	0%	.
CC(C)(C)OC(=O)CNC(=O)c1[nH]cnc1C(=O)N[C@@H](Cc1ccccc1)C(=O)OC(C)(C)C	0.9%	10%	.	-0.4	-20	15%	1
COc1ccc(C(=O)NN2CCOCC2)cc1	2.2%	4%	-52%[inhibitor]	3.5	3	3%	9
CN1CCc2c(sc3c2c(=O)n(-c2ccccc2)c2nnc(SCc4ccccc4)n32)C1	-10%	5%	-21%	2.8	?	-15%	1
CN(C(=O)c1ccoc1)c1ccc2ccccc2c1	0.1%	2%	?	.	8	-5%	-1
CNS(=O)(=O)c1cc(Nc2ncnc3sccc23)ccc1C	-1.6%	-5%	1%	8.9	10	6%	-3
Oc1c(I)cc(Cl)c2cccnc12	1.2%	6%	.	-1.0	10	-1%&-44%&2%	-95*
Cc1c(-c2nn(C)c(=O)c3ccccc23)oc2ccc(F)cc2c1=O	-3.3%	2%	?	0.1	4	1%	-6
CC(C)=CCOc1ccc2c(C)c(CC(=O)N3C[C@H]4C[C@@H](C3)c3cccc(=O)n3C4)c(=O)oc2c1C	4.5%	-16%	.	-2.8	2	0%	-8
COc1ccc(NC(=O)c2c(Cl)n(C)c3ccccc23)cc1	0.9%	-8%	0%	0.1	2	4%	-1
CCOc1ccccc1C(=O)Oc1ccc2ccc(=O)oc2c1	57%	1%	1%	0.8	12	10%	6
COc1cc(C)c(Br)cc1S(=O)(=O)NCc1ccncc1	.	-12%	18%[15.4 µM]	1.2	5	-2%	8
CCOc1ccc(C2Sc3ccccc3NC3=C2C(=O)OC3)cc1 (stereo not given)	-8.5%	?	12%	4.0	10	8%	-8
Cc1ccccc1CCN1CCCC(CN(C)C(=O)C(=O)c2ccco2)C1 (stereo not given)	-1.6%	-12%	-46%[inhibitor]	1.1	-2	0%	-7
COCCN(C(=O)CCN1C(=O)C2CC=CCC2C1=O)c1c(N)n(CC(C)C)c(=O)[nH]c1=O (stereo not given)	-4.8%	10%	7%	.	7	.	-3
CCn1cc(C(=O)NCc2cccc(C(F)(F)F)c2)c(=O)c2ccc(C)nc21	2.0%	13%	-38%	-0.3	1	9%	3
O=C(CCn1c(=O)[nH]c2ccsc2c1=O)N1CC(=O)N(CCc2ccccc2)C(=O)C1	0.2%	9%	16%	2.8	-2	17%	-3
CCOC(=O)c1c(C)nc2sc3c(=O)n(-c4ccc(C(C)=O)cc4)nnc3c2c1-c1ccc(Cl)cc1	2.5%	-6%	-33%[inhibitor]	-3.4	-2	-10%	-1
CN1C(=O)/C(=C/c2cccc(Cl)c2)Sc2ccc(C(=O)NCc3cccnc3)cc21	-15%	-20%	-23%	6.3	82*	?	-2
